Ran FRET = RanGTP/importin-beta interaction disruptors – biochemical, CFP-Ran/YFP-importin-beta FRET, RCC1, cell-free, primary screen (AID 434961); CFP-Ran/YFP-importin-beta FRET, cell-free; hits give high values; inhibition, %; 7,700 tested, 0.2% active;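 active means more than half of the replicate wells above 15% inhibition; inconclusive means exactly half above it; inactive means fewer than half above it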;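 further: 0% = DMSO wells and 100% inhibition = RanGDP control wells on each plate; stock of unstated strength diluted about 400-fold; mean of two wells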
Numbers without * were called inactive. An excerpt; rates above refer to the full screens.

Results for CC(C)NC(=O)N(C)C[C@@H]1Oc2ncc(C#Cc3ccc(C(F)(F)F)cc3)cc2C(=O)N([C@H](C)CO)C[C@@H]1C ?
Ran FRET: inconclusive

How did C[C@@H]1CN([C@H](C)CO)C(=O)c2cc(NS(=O)(=O)c3ccccc3)ccc2O[C@H]1CN(C)C(=O)Nc1ccc(C(F)(F)F)cc1 do in these assays?
Ran FRET: -1.7

How did C[C@H](CO)N1C[C@H](C)[C@@H](CN(C)Cc2ccncc2)Oc2ccc(NC(=O)Nc3ccc4c(c3)OCO4)cc2C1=O do in these assays?
Ran FRET: 0.6

Results for C[C@H]1CN([C@@H](C)CO)C(=O)CCCn2cc(nn2)CO[C@@H]1CN(C)S(=O)(=O)c1ccc(C#N)cc1 ?
Ran FRET: 0.8

How did C[C@H](CO)N1C[C@H](C)[C@H](CN(C)Cc2ccc3c(c2)OCO3)Oc2ccc(N(C)C)cc2C1=O do in these assays?
Ran FRET: inconclusive

Results for C[C@@H]1CN([C@@H](C)CO)C(=O)CCCn2cc(nn2)CO[C@H]1CN(C)Cc1ccccc1 ?
Ran FRET: 0.4

How did C[C@@H]1CN([C@H](C)CO)C(=O)c2cccc(N(C)C)c2O[C@@H]1CN(C)Cc1ccccc1 do in these assays?
Ran FRET: -4.1

How did Cc1noc(C)c1NC(=O)N(C)C[C@@H]1Oc2ccc(NC(=O)NC(C)C)cc2CC(=O)N([C@@H](C)CO)C[C@H]1C do in these assays?
Ran FRET: -0.9

How did CNC[C@H]1Oc2ccc(NC(=O)Nc3ccc4c(c3)OCO4)cc2C(=O)N([C@H](C)CO)C[C@H]1C do in these assays?
Ran FRET: -3.6

Results for C[C@@H]1CN([C@@H](C)CO)C(=O)c2cccc(NC(=O)NC3CCCCC3)c2O[C@H]1CN(C)S(=O)(=O)c1cccs1 ?
Ran FRET: 0.3

Results for C[C@@H]1CN([C@H](C)CO)C(=O)c2cccc(NC(=O)Nc3ccc(C(F)(F)F)cc3)c2O[C@@H]1CN(C)Cc1ccncc1 ?
Ran FRET: 2.3

Results for Cc1noc(C)c1NC(=O)N(C)C[C@@H]1Oc2c(NC(=O)c3ccc(-c4nccs4)cc3)cccc2C(=O)N([C@@H](C)CO)C[C@@H]1C ?
Ran FRET: -3.2

What do the screens show for `C[C@H]1CN([C@@H](C)CO)C(=O)c2cccc(NC(=O)C3CCOCC3)c2O[C@@H]1CN(C)S(=O)(=O)c1cn(C)cn1`?
Ran FRET: 3.8

How did C[C@@H]1CCCCO[C@@H](CN(C)C(=O)C2CCCCC2)[C@@H](C)CN([C@H](C)CO)C(=O)c2cc(NS(=O)(=O)c3ccccc3)ccc2O1 do in these assays?
Ran FRET: -4.6

Results for C[C@@H]1CN([C@H](C)CO)C(=O)c2cc(NC(=O)Nc3ccccc3)ccc2O[C@@H](C)CCCCO[C@H]1CN(C)C(=O)C1CCCCC1 ?
Ran FRET: -3.3

How did COc1ccc(NC(=O)Nc2cccc3c2O[C@@H](CN(C)S(=O)(=O)c2ccc(Cl)cc2)[C@H](C)CN([C@@H](C)CO)C3=O)cc1 do in these assays?
Ran FRET: 4.1

What do the screens show for `COc1ccc(NC(=O)Nc2ccc3c(c2)C(=O)N([C@H](C)CO)C[C@@H](C)[C@@H](CN(C)S(=O)(=O)c2cn(C)cn2)O3)cc1`?
Ran FRET: 0.2

How did COc1ccc(S(=O)(=O)N(C)C[C@H]2Oc3ccc(NC(=O)C4CC4)cc3C(=O)N([C@H](C)CO)C[C@H]2C)cc1 do in these assays?
Ran FRET: -1.0

How did Cc1noc(C)c1NC(=O)Nc1cccc2c1O[C@@H](CN(C)Cc1ccc(C(F)(F)F)cc1)[C@H](C)CN([C@H](C)CO)C2=O do in these assays?
Ran FRET: inconclusive

How did COc1ccc(CN(C)C[C@H]2Oc3c(NC(=O)c4cnccn4)cccc3C(=O)N([C@@H](C)CO)C[C@@H]2C)cc1 do in these assays?
Ran FRET: 4.0

Results for CC(C)NC(=O)Nc1ccc2c(c1)C(=O)N([C@@H](C)CO)C[C@@H](C)[C@@H](CN(C)C(=O)Nc1ccccc1)OCCCC[C@H](C)O2 ?
Ran FRET: 0.7

Results for C[C@H](CO)N1C[C@H](C)[C@H](CN(C)C)Oc2ccc(NC(=O)CCCN(C)C)cc2C1=O ?
Ran FRET: 2.2

What do the screens show for `Cc1ccc(S(=O)(=O)N(C)C[C@@H]2Oc3ccc(NC(=O)C4CC4)cc3CC(=O)N([C@H](C)CO)C[C@H]2C)cc1`?
Ran FRET: inconclusive

Results for Cc1noc(C)c1NC(=O)N(C)C[C@H]1Oc2ccc(NC(=O)Nc3ccc4c(c3)OCO4)cc2CC(=O)N([C@H](C)CO)C[C@H]1C ?
Ran FRET: -3.6

What do the screens show for `C[C@@H]1CCCCO[C@@H](CN(C)S(=O)(=O)c2cn(C)cn2)[C@@H](C)CN([C@@H](C)CO)C(=O)c2cc(NC(=O)c3ccccc3)ccc2O1`?
Ran FRET: 7.0

What do the screens show for `C[C@@H]1CN([C@@H](C)CO)C(=O)c2cccc(NS(C)(=O)=O)c2O[C@@H]1CN(C)C(=O)Nc1cccc2ccccc12`?
Ran FRET: -1.8

How did C[C@H](CO)N1C[C@H](C)[C@H](CN(C)S(=O)(=O)c2cn(C)cn2)Oc2c(NC(=O)NC3CCCCC3)cccc2C1=O do in these assays?
Ran FRET: -4.7

What do the screens show for `CNC[C@@H]1OCCCC[C@H](C)Oc2ccc(NC(=O)Nc3ccc(C(F)(F)F)cc3)cc2C(=O)N([C@@H](C)CO)C[C@@H]1C`?
Ran FRET: 1.0

How did CC(C)NC(=O)Nc1cccc2c1O[C@@H](CN(C)Cc1ccccc1)[C@H](C)CN([C@@H](C)CO)C2=O do in these assays?
Ran FRET: 2.1

Results for C[C@@H]1CCCCO[C@@H](CN(C)S(=O)(=O)c2cccs2)[C@@H](C)CN([C@H](C)CO)C(=O)c2cc(NS(=O)(=O)c3cccs3)ccc2O1 ?
Ran FRET: 2.2

Reprinted from the part before: six compounds; new compounds follow.
What do the screens show for `C[C@@H]1CCCCO[C@@H](CN(C)S(=O)(=O)c2cn(C)cn2)[C@@H](C)CN([C@@H](C)CO)C(=O)c2cc(NC(=O)c3ccccc3)ccc2O1`?
Ran FRET: 7.0

What do the screens show for `C[C@@H]1CN([C@@H](C)CO)C(=O)c2cccc(NS(C)(=O)=O)c2O[C@@H]1CN(C)C(=O)Nc1cccc2ccccc12`?
Ran FRET: -1.8

How did C[C@H](CO)N1C[C@H](C)[C@H](CN(C)S(=O)(=O)c2cn(C)cn2)Oc2c(NC(=O)NC3CCCCC3)cccc2C1=O do in these assays?
Ran FRET: -4.7

What do the screens show for `CNC[C@@H]1OCCCC[C@H](C)Oc2ccc(NC(=O)Nc3ccc(C(F)(F)F)cc3)cc2C(=O)N([C@@H](C)CO)C[C@@H]1C`?
Ran FRET: 1.0

How did CC(C)NC(=O)Nc1cccc2c1O[C@@H](CN(C)Cc1ccccc1)[C@H](C)CN([C@@H](C)CO)C2=O do in these assays?
Ran FRET: 2.1

Results for C[C@@H]1CCCCO[C@@H](CN(C)S(=O)(=O)c2cccs2)[C@@H](C)CN([C@H](C)CO)C(=O)c2cc(NS(=O)(=O)c3cccs3)ccc2O1 ?
Ran FRET: 2.2

How did Cc1cc(C(=O)Nc2cccc3c2O[C@H](CN(C)CC2CC2)[C@H](C)CN([C@@H](C)CO)C3=O)n(C)n1 do in these assays?
Ran FRET: -3.7

Results for CC(C)NC(=O)N(C)C[C@@H]1OCCCC[C@H](C)Oc2ccc(NC(=O)Nc3cccc4ccccc34)cc2C(=O)N([C@@H](C)CO)C[C@H]1C ?
Ran FRET: 3.6

How did C[C@@H]1CCCCO[C@H](CN(C)C(=O)C2CCCCC2)[C@@H](C)CN([C@H](C)CO)C(=O)c2cc(NC(=O)c3ccncc3)ccc2O1 do in these assays?
Ran FRET: -3.0

How did C[C@@H]1CN([C@@H](C)CO)C(=O)c2cc(NS(=O)(=O)c3cccs3)ccc2O[C@@H](C)CCCCO[C@@H]1CN(C)Cc1ccccc1 do in these assays?
Ran FRET: -2.7

How did C[C@H]1CN([C@@H](C)CO)C(=O)Cc2cc(NS(C)(=O)=O)ccc2O[C@H]1CN(C)C(=O)Nc1ccccc1 do in these assays?
Ran FRET: 0.2

What do the screens show for `COc1ccc(S(=O)(=O)Nc2ccc3c(c2)CC(=O)N([C@@H](C)CO)C[C@@H](C)[C@@H](CN(C)Cc2ccc(C(F)(F)F)cc2)O3)cc1`?
Ran FRET: -4.5

What do the screens show for `C[C@@H]1CN([C@H](C)CO)C(=O)Cc2cc(NS(=O)(=O)c3ccccc3)ccc2O[C@H]1CN(C)C(=O)Nc1ccccc1`?
Ran FRET: -0.6

Results for C[C@@H]1CN([C@@H](C)CO)C(=O)c2cccc(NC(=O)Nc3ccc4c(c3)OCO4)c2O[C@@H]1CN(C)C(=O)NC1CCCCC1 ?
Ran FRET: 7.2

How did C[C@@H]1CCCCO[C@H](CN(C)C(=O)c2ccncc2)[C@H](C)CN([C@@H](C)CO)C(=O)c2cc(NS(=O)(=O)c3ccccc3)ccc2O1 do in these assays?
Ran FRET: inconclusive

What do the screens show for `C[C@H](CO)N1C[C@H](C)[C@@H](CN(C)Cc2cccc3c2OCCCO3)OCc2cn(nn2)CCCC1=O`?
Ran FRET: -7.1

What do the screens show for `C[C@@H]1CN([C@H](C)CO)C(=O)c2cccc(NC(=O)c3ccncc3)c2O[C@H]1CN(C)Cc1ccc(C(=O)O)cc1`?
Ran FRET: 0.4

What do the screens show for `C[C@H](CO)N1C[C@H](C)[C@@H](CN(C)C(=O)C2CCCCC2)OCCCC[C@H](C)Oc2ccc(N(C)C)cc2C1=O`?
Ran FRET: -3.9

Results for CNC[C@@H]1OCCCC[C@@H](C)Oc2ccc(NC(=O)NC(C)C)cc2C(=O)N([C@@H](C)CO)C[C@H]1C ?
Ran FRET: -5.1

How did C[C@@H]1CCCCO[C@@H](CN(C)Cc2ccc3c(c2)OCO3)[C@@H](C)CN([C@@H](C)CO)C(=O)c2cc(NC(=O)CCCN(C)C)ccc2O1 do in these assays?
Ran FRET: -0.7

Results for C[C@@H]1CCCCO[C@H](CN(C)S(C)(=O)=O)[C@@H](C)CN([C@@H](C)CO)C(=O)c2cc(NS(=O)(=O)c3ccccc3)ccc2O1 ?
Ran FRET: 1.4

How did C[C@@H]1CN([C@@H](C)CO)C(=O)Cc2cc(NC(=O)NC3CCCCC3)ccc2O[C@H]1CN(C)C(=O)Nc1ccc2c(c1)OCO2 do in these assays?
Ran FRET: 4.9

Results for C[C@H]1CN([C@@H](C)CO)C(=O)CCCn2cc(nn2)CO[C@H]1CN(C)S(=O)(=O)c1ccc(Oc2ccccc2)nc1 ?
Ran FRET: 0.8

What do the screens show for `Cc1noc(C)c1NC(=O)N(C)C[C@@H]1Oc2c(NS(=O)(=O)c3cn(C)cn3)cccc2C(=O)N([C@@H](C)CO)C[C@H]1C`?
Ran FRET: 6.0

How did Cc1noc(C)c1NC(=O)N(C)C[C@H]1OCCCC[C@@H](C)Oc2ccc(NS(=O)(=O)c3cccs3)cc2C(=O)N([C@@H](C)CO)C[C@H]1C do in these assays?
Ran FRET: 1.4

What do the screens show for `CNC[C@@H]1Oc2c(NS(=O)(=O)c3c(C)noc3C)cccc2C(=O)N([C@@H](C)CO)C[C@@H]1C`?
Ran FRET: 6.1

Results for C[C@@H]1CN([C@H](C)CO)C(=O)c2cc(NC(=O)Nc3ccccc3)ccc2O[C@H]1CN(C)Cc1ccncc1 ?
Ran FRET: -5.3

How did COc1ccc(CN(C)C[C@H]2Oc3c(NS(=O)(=O)c4cn(C)cn4)cccc3C(=O)N([C@H](C)CO)C[C@H]2C)cc1 do in these assays?
Ran FRET: 2.5

What do the screens show for `C[C@H]1CN([C@@H](C)CO)C(=O)Cc2cc(NS(=O)(=O)c3cn(C)cn3)ccc2O[C@@H]1CN(C)S(=O)(=O)c1cn(C)cn1`?
Ran FRET: -5.9

Results for C[C@@H]1CN([C@@H](C)CO)C(=O)c2cc(NC(=O)CCCN(C)C)ccc2O[C@H]1CN(C)S(=O)(=O)c1cccs1 ?
Ran FRET: 1.1

Results for C[C@H]1CN([C@@H](C)CO)C(=O)CCCn2nncc2CO[C@H]1CN(C)C(=O)Nc1ccc(C(C)(C)C)cc1 ?
Ran FRET: 4.4

Results for CNC[C@@H]1OCCCC[C@H](C)Oc2ccc(NC(=O)c3ccncc3)cc2C(=O)N([C@@H](C)CO)C[C@@H]1C ?
Ran FRET: -1.0

Results for C[C@H](CO)N1C[C@H](C)[C@H](CN(C)Cc2ccccc2)Oc2ccc(NC(=O)NC3CCCCC3)cc2CC1=O ?
Ran FRET: -2.7

How did CNC[C@@H]1Oc2ccc(NC(=O)CCC(F)(F)F)cc2CC(=O)N([C@@H](C)CO)C[C@H]1C do in these assays?
Ran FRET: -2.6

How did Cc1noc(C)c1S(=O)(=O)Nc1ccc2c(c1)C(=O)N([C@H](C)CO)C[C@H](C)[C@@H](CN(C)C(=O)NC(C)C)OCCCC[C@H](C)O2 do in these assays?
Ran FRET: 0.2

Results for C[C@H](CO)N1C[C@H](C)[C@H](CN(C)C(=O)Nc2ccc3c(c2)OCO3)Oc2ccc(NC(=O)NC3CCCCC3)cc2CC1=O ?
Ran FRET: -3.6

Results for CCCN(C)C[C@@H]1Oc2ncc(-c3ccc(F)cc3)cc2C(=O)N([C@H](C)CO)C[C@@H]1C ?
Ran FRET: -2.6

Results for C[C@@H]1CCCCO[C@@H](CN(C)C)[C@@H](C)CN([C@H](C)CO)C(=O)c2cc(NC(=O)Nc3cccc4ccccc34)ccc2O1 ?
Ran FRET: -4.0

How did Cc1cc(C(=O)Nc2cccc3c2O[C@H](CN(C)S(=O)(=O)c2cn(C)cn2)[C@@H](C)CN([C@H](C)CO)C3=O)n(C)n1 do in these assays?
Ran FRET: 0.4

How did C[C@@H]1CN([C@H](C)CO)C(=O)Cc2cc(NC(=O)NC3CCCCC3)ccc2O[C@H]1CN(C)S(=O)(=O)c1cccs1 do in these assays?
Ran FRET: 4.5

What do the screens show for `C[C@@H]1CN([C@@H](C)CO)C(=O)c2cc(N(C)C)ccc2O[C@@H](C)CCCCO[C@@H]1CN(C)S(=O)(=O)c1cn(C)cn1`?
Ran FRET: -2.4

How did COc1ccc(CN(C)C[C@@H]2Oc3c(NS(=O)(=O)c4cccs4)cccc3C(=O)N([C@H](C)CO)C[C@@H]2C)cc1 do in these assays?
Ran FRET: -6.2

Screening data as filed in PubChem BioAssay.
